KCNQ2 inh: KCNQ2 potassium channel inhibitors, primary screen, cell-based, CHO-K1, FluxOR thallium flux, B-score (AID 2156) | Potassium voltage-gated channel subfamily KQT member 2 (Rattus norvegicus), O88943 | 1.1% of 310,000 active | 20 min; hits give low values; only compounds with negative scores are shown here; some inactives read as strong as hits | B-score at 10 µM;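 active = fluorescence ratio B-score at most minus 3 library SDs, with starting brightness B-score within 2 library SDs, cut at about -5.5 in these data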
Target sequence (O88943 whole entry, looked up): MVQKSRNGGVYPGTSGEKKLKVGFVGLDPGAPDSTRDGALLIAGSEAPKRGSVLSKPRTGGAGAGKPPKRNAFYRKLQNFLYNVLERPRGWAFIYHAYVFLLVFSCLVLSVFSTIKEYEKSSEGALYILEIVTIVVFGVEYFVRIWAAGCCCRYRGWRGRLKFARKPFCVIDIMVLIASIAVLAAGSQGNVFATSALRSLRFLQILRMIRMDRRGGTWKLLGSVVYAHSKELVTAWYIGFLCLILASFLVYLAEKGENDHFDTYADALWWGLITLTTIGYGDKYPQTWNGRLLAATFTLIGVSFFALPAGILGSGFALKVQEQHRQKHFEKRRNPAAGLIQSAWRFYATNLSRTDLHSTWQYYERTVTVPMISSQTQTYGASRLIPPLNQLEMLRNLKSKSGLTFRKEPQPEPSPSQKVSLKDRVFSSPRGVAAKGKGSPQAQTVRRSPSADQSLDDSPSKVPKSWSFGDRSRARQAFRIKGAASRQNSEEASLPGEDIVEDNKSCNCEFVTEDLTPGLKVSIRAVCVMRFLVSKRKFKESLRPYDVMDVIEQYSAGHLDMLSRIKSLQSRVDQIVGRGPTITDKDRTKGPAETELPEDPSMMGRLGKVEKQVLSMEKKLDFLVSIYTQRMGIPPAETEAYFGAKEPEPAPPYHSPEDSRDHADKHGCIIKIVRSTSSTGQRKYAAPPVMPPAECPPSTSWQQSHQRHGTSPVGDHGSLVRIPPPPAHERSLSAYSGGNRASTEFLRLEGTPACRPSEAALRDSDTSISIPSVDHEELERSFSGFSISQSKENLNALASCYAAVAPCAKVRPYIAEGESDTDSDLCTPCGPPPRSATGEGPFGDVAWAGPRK
KCNQ2 inh baseline: further read-out of KCNQ2 inh, marked with its call; B-score; measured here: initial fluorescence intensity artifact check;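 brightness before thallium and not channel activity; 0 = typical well and far values either way flag optical interference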
* hit, by the source's call; i = inactive; & = joins results of further samples. Not all compounds are listed; the hit share may differ from the screen's.

SMILES	KCNQ2 inh	KCNQ2 inh baseline
N#C/C(=C(/O)COc1ccc(Br)cc1)c1nnc2n1CCCCC2	i	0.43
CCOC(=O)c1ccc(NC(=S)Nc2ccccc2N)cc1	i	0.13
COc1ccc(NC(=O)NCCN2CCN(c3ccc(C)cc3)CC2)c(Cl)c1	i	0.65
O=C(NC(=O)c1ccccc1N1CCCCC1)Nc1ccc(Br)cc1	i	-0.02
Cc1cc(N)n2nc(C)c(-c3ccc(Cl)cc3)c2n1	i	-0.97
CCC(C)[C@H](NC(=O)NCCC1=CCCCC1)C(=O)O (stereo not given in full)	i	-0.51
CC(=O)N1CCN(c2ccccc2NC(=O)COc2ccc(Br)cc2)CC1	i	-1.5
CCNC(=O)NC(=O)C(C)OC(=O)c1ccc(SC)cc1OC (stereo not given)	i	0.78
CC(C)(C)NC(=O)CSc1nncn1-c1ccccc1	i	2.9
Cc1c(C(=O)N(C)Cc2ccc(OC(F)F)cc2)oc2ccccc12	i	-0.56
Cc1nn(CC(=O)N2CCCCCC2)c(=O)c2cc3occc3n12	i	0.24
Cc1cnc(NC(=O)CSc2ccc(Cl)cc2)s1	i	-0.23
CCOC(=O)c1sc(=S)n(C)c1NC(=O)c1ccc(OC)cc1	i	0.09
O=C(CSc1n[nH]c(-c2ccncc2)n1)c1cccc([N+](=O)[O-])c1	i	0.98
O=C(NCCc1ccc(Cl)cc1)C1CCCN1C(=O)NCc1ccccc1 (stereo not given)	i	0.24
Cc1ccccc1Nc1nc(N)nc(CN(C)Cc2ccccc2Cl)n1	i	0.47
CC1C/C(=C/c2cccs2)C(=O)/C(=C/c2cccs2)C1 (stereo not given)	i	-0.04
C#CCNc1ccc(C(=O)OCC)cc1	i	-1.8
CCCCn1c(=O)c(CC(C)=O)nc2ccccc21	i	-1.2
COc1ccc(CNC(=O)C2CCN(C(=O)[C@@H](CC(C)C)NC(=O)OC(C)(C)C)CC2)cc1	i	2.7
COC(=O)C(=Cc1ccccc1[N+](=O)[O-])C(=O)OC	i	0.94
O=C1NC2(CCCCCC2)C(=O)N1Cc1ccc(Cl)cc1Cl	i	-0.01
O=C(N/N=C/c1ccc([N+](=O)[O-])cc1)c1cccnc1	i	1.5
CN(C)c1ccc(C=Nc2ccc(N(C)C)cc2)cc1	i	1.4
COc1ccc(NC(=O)Cn2c(=O)sc3ccccc32)c(OC)c1	i	-1.1

At a glance, 16 of the compounds above:
SMILES	KCNQ2 inh	KCNQ2 inh baseline
Cc1c(C(=O)N(C)Cc2ccc(OC(F)F)cc2)oc2ccccc12	i	-0.56
Cc1nn(CC(=O)N2CCCCCC2)c(=O)c2cc3occc3n12	i	0.24
Cc1cnc(NC(=O)CSc2ccc(Cl)cc2)s1	i	-0.23
CCOC(=O)c1sc(=S)n(C)c1NC(=O)c1ccc(OC)cc1	i	0.09
O=C(CSc1n[nH]c(-c2ccncc2)n1)c1cccc([N+](=O)[O-])c1	i	0.98
O=C(NCCc1ccc(Cl)cc1)C1CCCN1C(=O)NCc1ccccc1 (stereo not given)	i	0.24
Cc1ccccc1Nc1nc(N)nc(CN(C)Cc2ccccc2Cl)n1	i	0.47
CC1C/C(=C/c2cccs2)C(=O)/C(=C/c2cccs2)C1 (stereo not given)	i	-0.04
C#CCNc1ccc(C(=O)OCC)cc1	i	-1.8
CCCCn1c(=O)c(CC(C)=O)nc2ccccc21	i	-1.2
COc1ccc(CNC(=O)C2CCN(C(=O)[C@@H](CC(C)C)NC(=O)OC(C)(C)C)CC2)cc1	i	2.7
COC(=O)C(=Cc1ccccc1[N+](=O)[O-])C(=O)OC	i	0.94
O=C1NC2(CCCCCC2)C(=O)N1Cc1ccc(Cl)cc1Cl	i	-0.01
O=C(N/N=C/c1ccc([N+](=O)[O-])cc1)c1cccnc1	i	1.5
CN(C)c1ccc(C=Nc2ccc(N(C)C)cc2)cc1	i	1.4
COc1ccc(NC(=O)Cn2c(=O)sc3ccccc32)c(OC)c1	i	-1.1

Later entries.
SMILES	KCNQ2 inh	KCNQ2 inh baseline
COc1ccccc1NS(=O)(=O)c1cc(NC(=O)c2cccs2)ccc1N1CCCC1	i	0.27
CC(=O)c1ccc(NC(=S)N2CCN(CCO)CC2)cc1	i	0.05
CC(=O)Cc1ccccc1OC(=O)c1ccco1	i	-0.41
COc1cccc(CN2CCN(C(=O)c3oc4c(F)cccc4c3C)CC2=O)c1	i	1.9
Cc1cccc(N(C)C(=O)c2cc(S(=O)(=O)N3CCc4ccccc43)cn2C)c1	i	-0.45
CCOC(=O)c1ccccc1-n1c(C)cc(C2N=C(N)Nc3nc4ccccc4n32)c1C (stereo not given)	i	0.21
O=C(NCc1cccs1)c1cc(-c2ccccc2)on1	i	2.5
CNc1ccc(Br)cc(C(=O)/C=C/c2ccc3c(c2)OCO3)c1=O	i	-0.67
CCc1cc(=O)[nH]c(SCC(=O)N2CCOCC2)n1	i	1.2
COc1ccc(CN(CCc2ccccc2)Cc2ccccc2)cc1OC	i	2.3
Cc1cccc(NC(=O)Cc2ccc(-c3ccccc3)cc2)n1	i	1.2
O=Cc1cccn1-c1nccc(-c2ccco2)n1	i	0.71
COc1ccc(CNc2ncnc3c2[nH]c2cc(OC)c(OC)cc23)cc1	i	-0.13
CC(SC1=NCCN1S(=O)(=O)c1ccc(F)cc1)c1ccccc1 (stereo not given)	i	-0.97
COc1ccccc1/C=N/N1CCN(c2ccc(Cl)cc2)CC1	i	-0.31
Cc1c(/C=N/Nc2nc3ccccc3[nH]2)c2ccccc2n1C	i	0.31
COC(=O)C1=C(C)N(Cc2ccccc2)C(=NCc2ccc(OC)cc2)N[C@H]1c1cccc(F)c1	i	0.54
S=C(NCc1ccccn1)Nc1ccc(Cl)cc1Cl	i	0.5
CCn1cc(C2C(C(=O)Nc3ccc(Br)cn3)=C(C)NC3=C2C(=O)CCC3)c(C)n1 (stereo not given)	i	2.2
Cc1csc(SC(C)C(=O)NC2CCCCC2C)n1 (stereo not given)	i	2.4
Cc1ccc(C(=O)O/N=C(\N)c2ccccn2)cc1Cl	i	-0.64
Cc1ccc2c(c1)nnn2C1CCN(C(=O)NCc2ccccc2)CC1	i	-0.3
COc1ccc(C)cc1NS(=O)(=O)c1ccc(Br)s1	i	0.68
CCOC(=O)CCC(=O)NNC(=O)COc1ccc(C(C)C)cc1Br	i	0.42
CCCCOc1ccc(S(=O)(=O)n2c(C)nc3ccccc32)cc1	i	0.02

The closing 2 records of the section before lead into the next:
SMILES	KCNQ2 inh	KCNQ2 inh baseline
CCOC(=O)CCC(=O)NNC(=O)COc1ccc(C(C)C)cc1Br	i	0.42
CCCCOc1ccc(S(=O)(=O)n2c(C)nc3ccccc32)cc1	i	0.02
CC(Sc1ccccc1)C(=O)NN=C1CCCC1 (stereo not given)	i	0.94
COC(C[C@H](O)CC(=O)COCc1ccccc1)OC	i	0.01
O=C1C2C3c4ccccc4C(c4ccccc43)C2C(=O)N1c1nc(-c2ccccc2)cs1 (stereo not given)	i	2.3
Cc1cc2c(C)c(C)c(=O)[nH]c2cc1N	i	0.04
O=C(CSc1nnc(Cc2ccccc2)o1)c1ccccc1	i	0.74
O=C1c2sc3nc4ccccc4n3c2C(=O)N1c1ccccc1Cl	i	0.16
Cc1ccc(-c2noc(CCCC(=O)NCC3CCCO3)n2)cc1 (stereo not given)	i	-0.02
Cc1cccc(C(C)C)c1NC(=O)c1cc2ccccc2o1	i	-0.02
COc1cccc(OC)c1OCCCc1c(C)n[nH]c1C	i	-0.05
Cc1ccc(OCC(=O)NCc2ccccn2)cc1	i	-0.02
CC(=O)Nc1cc(N2C(=O)CCC2=O)ccc1Cl	i	1.3
COc1ccc2nc(NC(=O)CSc3nc4ccccc4o3)sc2c1	i	-1.3
CCCCCNC(=O)c1cc(S(=O)(=O)N2CCCC2)ccc1F	i	1.2
CC(C)N1C(=O)CCC1C(=O)NCCc1ccc(Cl)cc1 (stereo not given)	i	0.91
Cc1cc(C)cc(NC(=S)N(Cc2ccc(Cl)cc2)Cc2ccc(C(=O)O)cc2)c1	i	0.55
CC(=O)n1cc([C@H]2C=C(C(=O)N3CCN(Cc4ccc5c(c4)OCO5)CC3)O[C@@H](OCCCCO)C2)c2ccccc21	i	0.39
CC(OC(=O)Cn1cnc2c1c(=O)n(C)c(=O)n2C)C(=O)NC1CCCCC1C (stereo not given)	i	1.5
CC1CNCCN1S(=O)(=O)c1cccc2cnccc12 (stereo not given)	i	-0.95&3
O=C(OCc1ccccc1)/C(=C/c1cccc2ccccc12)NC(=O)c1ccccc1	i	-0.33
COCC(=O)Oc1c(S(=O)(=O)c2ccccc2)c(C)nn1C(C)(C)C	i	0.77
COc1ccc(NC(=S)N2CCC(N(C)CC3CCCO3)CC2)cc1 (stereo not given)	i	-0.4
Cc1ccccc1NC(=S)NNC(=O)c1ccncc1	i	-2.8
NC(=S)N/N=C/c1c[nH]c2ccc(OCc3ccccc3)cc12	i	-1
Cc1ccc(-n2c(CCC(=O)O)ccc2-c2cccs2)cc1C	i	4.1
COC(=O)C1CCN(C(=O)Cn2nnc(-c3cccc(F)c3)n2)CC1	i	0.6

Continued.
SMILES	KCNQ2 inh	KCNQ2 inh baseline
Cc1cc(=O)oc2c3c(cc(OCC(=O)NCCC(=O)O)c12)OC(C)(C)CC3	i	0.97
CCOc1ccc(CCNC(=O)c2cccc(N3CCCC3=O)c2)cc1OCC	i	0.28
CCN(CC)CCCNC(=O)/C=C/C(=O)O	i	-0.01
COc1ccccc1-c1c(C)nn2c(NCCN3CCCC3)cc(C)nc12	i	0.5
Cc1ccccc1SCC(=O)NNC(=O)c1ccccc1O	i	0.07
CSc1nsc(NC(=O)CCNC(=O)c2ccc([N+](=O)[O-])cc2)n1	i	-1.5
CN=C(Nc1cc(C)nn1CCC#N)c1ccccc1	i	-0.06
O=C(NCCCN1CCN(c2ccc(F)cc2)CC1)NC12CC3CC(CC(C3)C1)C2	-8.2*	0.16*
O=S(=O)(Nc1nc2ccccc2nc1Cl)c1ccc(F)cc1	i	1
CCOc1ccc(CN2CCNC(=O)C2CC(=O)NCCN2CCOC2=O)cc1 (stereo not given)	i	-0.09
CC(C)(CN1CCc2ccccc2C1)NS(=O)(=O)c1ccc(Cl)cc1	i	1.2
CC(C)=C1C2CCC1C1C(=O)N(NC(=O)COc3ccc(C(C)(C)C)cc3)C(=O)C21 (stereo not given)	i	-0.3
Cc1cc(C)c(C#N)c(SCC(=O)CC(=O)OC(C)C)n1	i	1
O=C(CN1CCN(Cc2ccc(Cl)cc2)CC1)N/N=C/c1cccc(F)c1	i	-0.79
CC(=O)NC(=S)Nc1ccccc1C(=O)NC1CCCCC1	i	-0.78
COCc1nnc(NC(=O)C2CC(=O)N(CCc3ccc(F)cc3)C2)s1 (stereo not given)	i	1.3
O=c1[nH]c(NC2CCN(S(=O)(=O)c3ccccc3C(F)(F)F)CC2)nc2c1CCCC2	i	-0.45
Clc1ccc(-c2nnc3sc(Cc4cccs4)nn23)c(Cl)c1	i	-1.6
CCN1CCN(c2oc(COc3ccc(Cl)cc3)nc2C#N)CC1	i	1.9
O=C(CSc1nnc(-c2cccnc2)n1Cc1ccco1)Nc1cccc(O)c1	i	-3.3
c1ccc(-n2cccc2)c(N2CCCCC2)c1	i	-0.46
O=C(COC(=O)CNS(=O)(=O)c1ccc(F)c(F)c1F)Nc1ccc(OC(F)F)cc1	i	0.33
O=C(NCCc1ccccc1)C1CCN(S(=O)(=O)N2CCCC2)CC1	i	-0.28
CC(C)CCN1CC(C(=O)N2CCN(c3ccc(F)cc3)CC2)CC1=O (stereo not given)	i	-0.12
CCC(=O)N1CCc2cc(Br)cc(S(=O)(=O)CCC(=O)N(CC)CC)c21	i	-0.34

(listing goes on)
SMILES	KCNQ2 inh	KCNQ2 inh baseline
COc1ccc(C(CNC(=O)c2cc3ccccc3cc2OC)N2CCCC2)cc1 (stereo not given)	i	1.7
O=C(O)c1ccccc1SCC(=O)N1CCOCC1	i	-2.6
COc1ccc(C(=O)Nc2ccccc2N2CCN(C(=O)c3ccccc3)CC2)cc1Br	-7.2*	-0.51*
COC(=O)/C(C#N)=C/c1c(N2CCN(Cc3ccc4c(c3)OCO4)CC2)nc2c(C)cccn2c1=O	i	-0.02
O=C1C2CCCN2C(c2cccc(Br)c2)N1c1ccc(F)cc1 (stereo not given)	i	-1.4
CCOC(=O)c1sc2nc(NC(=O)COc3ccccc3)sc2c1C	i	-0.95
CC(C)Cc1nc(N2CCC(C(N)=O)CC2)c2nnn(Cc3ccccc3)c2n1	i	-2.4
Cc1cccc(NC(NC(=O)Cc2ccccc2)C(Cl)(Cl)Cl)c1 (stereo not given)	i	-0.2
Cc1c(Br)c(C(F)(F)F)nn1CC(=O)N(C)C1CCCCC1	i	0.09
CC(C)CCNC(=O)c1nn(Cc2ccccc2)c(=O)c2ccccc12	i	2.2
CCOC(=O)C1(CCCc2ccccc2)CCN(C(=O)C2=C(C)OCCO2)CC1	i	-2.5
Cc1ccccc1NC(=O)c1cc2c(=O)n3cccc(C)c3nc2s1	i	0.19
O=C1N(Cc2cccnc2)C[C@@H]2C[C@@H](c3ccc4nonc4c3)N3CCC[C@@]123	i	1.3
O=C(c1cc(S(=O)(=O)N2CCOCC2)ccc1Cl)N1CCc2ccccc2C1	i	1.7
COc1ccc(C(C(=O)NC2CCCC2)N(C(=O)c2snc(C(N)=O)c2N)C2CCCC2)cc1OC (stereo not given)	i	-0.18
CC1(C)Cc2c(cnn2-c2cccc(F)c2)C(NC(=O)c2ccc(=O)[nH]n2)C1 (stereo not given)	i	-0.86
COc1ccc(NC(=O)c2ccc(=O)oc2)cc1	i	-0.69
O=C(Nc1nnc(-c2ccccc2Cl)s1)C1CCN(S(=O)(=O)c2ccc(Cl)cc2)CC1	i	0.99
COc1ccccc1-c1nc(SCC(=O)Nc2ccccc2)n[nH]1	i	0.85
CC1(c2ccccc2)CC(C)(C)N(C(=O)c2cc([N+](=O)[O-])cc([N+](=O)[O-])c2)c2ccccc21 (stereo not given)	i	-1.4
Cc1ccc(NC(=S)N2CCC(NC(=O)c3ccc(F)cc3)CC2)cc1	i	1.8
CN(CC(=O)Nc1ccc(F)c(F)c1F)C(=O)c1ccc2c(c1)OCCO2	i	2.6
CCN(CC)S(=O)(=O)c1ccc(C(=O)Nc2nnc(CSC)o2)cc1	i	-0.07
O=C(Nc1ccccc1)C(c1ccccc1)C1CCCC1 (stereo not given)	i	-0.4
